BJeLR lethal: kills HRASV12-expressing BJeLR cells; BJeLR (HRASV12) viability, CellTiter-Glo ATP luminescence, 48 h; reference of the scale not given here; 300,000 tested, 0.17% active; inhibition, % (no concentration beside the values);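 active = replicate mean above 50%; inconclusive = above 50% but judged a plate artefact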;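 note: 50 nL library stock added to about 25 µL; numbers are from one replicate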
PrP 5UTR inh: inhibition of PrP 5' UTR reporter expression; cell-based PrP 5' UTR mRNA reporter, plate reader; inhibition, % (test concentration not listed); 340,000 tested, 0.35% active; AID 488862;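 active = every replicate at 50% or more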;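 note: 0 = median of the neutral control wells; tested in H4 reporter cells; numbers are from one replicate; inactives centre near -14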
Autofluor counter: flagged as autofluorescent in microsphere protease counterscreen; compound autofluorescence counterscreen, microsphere flow cytometry; stronger effect = higher value; fluorescence intensity (concentration not given with the values); 360,000 tested, 3.1% active; AID 624483;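 active = at least 3 SD above the mean of all compounds, about 16000 in these data; inconclusive = too few beads counted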;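 note: 100 nL of 1 mM stock went into each well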
Mtb hypoxia inh: inhibitors of hypoxia-regulated fluorescent reporter in Mycobacterium tuberculosis | AID 1159583 | 300,000 tested, 0.1% active | fluorescence inhibition, % (no concentration beside the values) | M. tuberculosis hypoxia-regulated fluorescent reporter, fluorescence;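 active = 35 to 45% if threefold the growth effect, above 45% if 1.5-fold the growth effect; inactive = the rest, general growth blockers included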;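 note: wells of about 50 µL received 100 nL stock; 0% = vehicle wells and 100% = reference inhibitor wells; whole bacteria with a GFP reporter of the hypoxia response; strong numbers were not always called active; many hits fall short of the cut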
Sa RN4220 lethal: S. aureus RN4220 growth inhibition; OD600, 16 h; inhibition, % (concentration not given with the values); 330,000 tested, 0.33% active; AID 1259311;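 active = z-score of -3 or lower and OD600 up to 0.18 on both plates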;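 note: plate controls were untreated cells for no effect and reference antibiotic for full effect; stock transfer was 100 nL into about 80 µL; one replicate is shown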
ugtP null kill: growth inhibition of S. aureus ugtP deletion strain. S. aureus RN4220 ugtP deletion, OD600 growth, 16 h; some inactives read as strong as hits. 330,000 tested, 0.54% active. growth inhibition, % (no concentration beside the values);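 active = z-score under -3 and OD600 up to 0.15 on both plates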;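 note: plate controls were untreated wells for no effect and antibiotic for full effect; wells of about 80 µL received 100 nL stock; the first replicate is given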
Mtb hypoxia inh growth: recorded beside Mtb hypoxia inh, whose call it bears; growth inhibition, %; measured here: M. tuberculosis growth (absorbance);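 0% = vehicle and 100% = reference antibiotic; read after six days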
Numbers without * were called inactive; ? = inconclusive; · = not tested or not shown; & = joins results of further samples.

SMILES	BJeLR lethal	PrP 5UTR inh	Autofluor counter	Mtb hypoxia inh	Mtb hypoxia inh growth	Sa RN4220 lethal	ugtP null kill
O=C(O)CSc1ncnc2scc(-c3ccc(Br)cc3)c12	2	4	5072	-4	-10	5.9	10
Cc1c(NC(=S)NN=C/C=C/c2ccccc2)c(=O)n(-c2ccccc2)n1C	·	·	·	4	0	1.0	6
COc1cc(S(=O)(=O)Nc2c(C)cc(C)cc2C)ccc1Cl	7	-9	17705*	7	9	9.3	-10
COc1cccc(-c2ccc(NC(=O)C3CCCN(CCCn4nc(C)cc4C)C3)cc2)c1 (configuration not stated)	8	-4	4336	4	4	-2.5	9
O=C(CCc1ccccc1)NCC(=O)NN=Cc1ccc(O)cc1O	·	·	·	12	8	0.7	1
Cn1c(=N)n(CC(=O)O)c2ccccc21	1	3	2794	·	·	2.8	-5
Cc1cc(NC(=O)CCC(=O)N(c2ccccc2)C(C)C(=O)NC2CCCC2)no1 (configuration not stated)	-6	-19	5064	11	5	4.6	8
COc1ccc(/C=C/C(=O)Nc2nnc(C(C)C)s2)cc1OC	3	·	5811	-3	4	5.5	2
CC1CCCN(CC(O)CN)C1 (configuration not stated)	1	-17	17684*	6	17	4.6	-3
Cc1ccccc1OCC(=O)OC1CCN(C)CC1	-5	-5	2453	11	13	1.6	4
C[C@]12c3[nH]c4ccccc4c3CCN1C(=O)C(CC(=O)NCc1ccco1)C[C@@H]2C(=O)N1CCCCC1 (some centres not stated)	·	-12	3839	-9	-11	0.6	-2
O=C(CSc1nnc(-c2ccccn2)n1-c1ccc(Cl)cc1)Nc1ccc2c(c1)OCO2	4	-4	22588*	-6	-8	0.7	-1
CCOc1ccc(Cl)cc1CSc1ncn[nH]1	0	-12	2056	-16	-14	2.3	6
COC(=O)c1ccc(C2C(C#N)=C(N)Oc3cc(C)n(C)c(=O)c32)cc1 (configuration not stated)	-3	-10	2369	7	8	2.0	2
COc1ccnc(CSC(N)=Nc2cccc(C(F)(F)F)c2)c1	8	5	6905	10	10	9.9	-19

A few values from the results shown.
`Cc1cc(NC(=O)CCC(=O)N(c2ccccc2)C(C)C(=O)NC2CCCC2)no1` (configuration not stated) – BJeLR lethal: -6
`O=C(CSc1nnc(-c2ccccn2)n1-c1ccc(Cl)cc1)Nc1ccc2c(c1)OCO2` – ugtP null kill: -1
`COC(=O)c1ccc(C2C(C#N)=C(N)Oc3cc(C)n(C)c(=O)c32)cc1` (configuration not stated) – ugtP null kill: 2

Other records.
SMILES	BJeLR lethal	PrP 5UTR inh	Autofluor counter	Mtb hypoxia inh	Mtb hypoxia inh growth	Sa RN4220 lethal	ugtP null kill
COc1ccccc1N1C(=O)CCC1(C#N)c1ccccc1 (configuration not stated)	-3	-23	5114	8	6	1.2	-1
N#Cc1cccc(C(=O)OCC(=O)NC(=O)NC2CCCCC2)c1	-11	-21	?	8	2	1.2	7
COC(=O)c1ccc(/C=N/OCC(=O)NCc2ccc(F)cc2)cc1	-6	-5	4446	·	·	·	·
O=C(NCCCn1ccnc1)c1cc([N+](=O)[O-])cc([N+](=O)[O-])c1	7	4	2465	0	16	5.2	8
CC1(C)CC(C(CC(=O)O)c2ccccc2)CCO1 (configuration not stated)	5	-20	9378	4	4	3.6	8
COc1cc(/C=C/C(=O)OCC(=O)NCc2ccc(F)cc2)ccc1O	·	-32	4057	0	-1	1.4	0
Cc1ccccc1OCC(=O)N/N=C/c1cn(C)c2ccccc12	-8	-21	4236	·	·	·	·
Cc1c(NC(=O)c2ccco2)cccc1C(=O)NN1C(=O)c2ccccc2C1=O	5	-11	2166	5	0	1.9	8
COC(=O)C1=C(N)N(c2ccccc2C(F)(F)F)C2=C(C(=O)CCC2)C1c1ccc2c(c1)OCO2 (configuration not stated)	3	-6	2918	1	3	-7.2	4
Cn1c(=O)c(C(=O)CSc2nncs2)c(N)n(Cc2ccccc2)c1=O	4	5	9262	1	0	2.9	0
CC(=O)c1cccc(NCC(=O)Nc2cccc(S(=O)(=O)N3CCCCC3)c2)c1	6	-13	4487	7	0	6.0	-1
CN1CCN(C(=S)c2cn(Cc3ccccc3)c3ccccc23)CC1	-8	-4	4245	-10	2	-4.2	-8
CCOc1ccc(-c2cc(N)n(S(=O)(=O)c3ccc(OC)c(OC)c3)n2)cc1	9	-27	6193	-11	-1	1.3	6
O=C(N1CCOCC1)N1CCN(c2nc(-c3ccc(F)cc3)cs2)CC1	1	-3	8427	3	12	-1.5	7
CC1CCC(NC(=O)Cn2c(=O)[nH]c3ccsc3c2=O)CC1 (configuration not stated)	-3	-29	?	19	5	5.0	14
CC(=O)Nc1ccc(/C=C/c2noc(-c3ccccc3O)n2)cc1	3	-77	3753	-4	-6	-0.4	-10
CC(C)CCn1c(Sc2nc3ccccc3s2)nc2c1c(=O)[nH]c(=O)n2C	-6	2	4357	-3	3	-0.1	-11
Cc1cccc(C)c1NC(=O)CNC(=O)c1cccnc1	4	-3	6183	-10	-20	2.6	9
Cc1nc(-c2cccc(S(=O)(=O)N3CCCCC3)c2)cs1	-7	-10	5241	-12	1	3.4	5
CCOc1ccc(S(=O)(=O)c2c(C(=O)c3ccc(C)cc3)cnc3cc4c(cc23)OCCO4)cc1	-4	-10	2070	11	3	-1.3	11
CC(=O)c1nn(-c2ccc(C)cc2)cc1C(=O)c1cccc(Br)c1	-2	-14	?	-3	0	6.8	0
CCN(CC)C(=O)CSc1nc2ccccc2c(=O)n1OC(C)C	-11	8	17014*	0	-3	4.5	8
CC(SC#N)C(=O)C12CC3CC(CC(C3)C1)C2 (configuration not stated)	-5	-6	1958	9	-4	10	13
COc1cc(OC)cc(-c2c(-c3ccc(F)cc3)c3cc(-c4ccc5[nH]ccc5c4)ccc3n2C)c1	·	-14	2692	9	7	-1.0	7
CC(=O)Nc1ccc(C(=O)Nc2ccc(S(=O)(=O)N3CCOCC3)cc2)cc1	-4	-10	3470	-2	-3	2.2	2
CCOc1ccc(NC(=S)NC2CC3CCC(C2)N3Cc2ccco2)cc1 (configuration not stated)	1	2	4191	8	-9	-2.4	-1
Cc1ccnc(OC(C(=O)O)C(OCc2ccccc2)(c2ccccc2)c2ccc(C(F)(F)F)cc2)n1 (configuration not stated)	-6	-18	3715	2	-3	6.2	8
C/C(=N/NC(=O)CNC(=O)COc1ccccc1)c1ccc(Cl)cc1	-4	-5	5714	·	·	·	·
C[C@H](NC(=O)c1cc2c([nH]c3ccccc32)c(-c2ccccc2)n1)C(=O)O	4	-19	3675	-12	6	8.9	-3
Cc1c(C(=O)Nc2ccc3c(c2)OCCO3)sc2nc(-c3ccccc3)cn12	8	-28	10568	9	14	15	-7

3 of the compounds above, with values under each structure:
Sequence of screens – BJeLR lethal	PrP 5UTR inh	Autofluor counter	Mtb hypoxia inh	Mtb hypoxia inh growth	Sa RN4220 lethal	ugtP null kill
CC(=O)Nc1ccc(/C=C/c2noc(-c3ccccc3O)n2)cc1
    3	-77	3753	-4	-6	-0.4	-10
CC(C)CCn1c(Sc2nc3ccccc3s2)nc2c1c(=O)[nH]c(=O)n2C
    -6	2	4357	-3	3	-0.1	-11
CCOc1ccc(NC(=S)NC2CC3CCC(C2)N3Cc2ccco2)cc1 (configuration not stated)
    1	2	4191	8	-9	-2.4	-1

More entries.
SMILES	BJeLR lethal	PrP 5UTR inh	Autofluor counter	Mtb hypoxia inh	Mtb hypoxia inh growth	Sa RN4220 lethal	ugtP null kill
CCOC(=O)c1c(CN2CCN(CCO)CC2)n(C)c2cc(Br)c(OC)cc12	-8	-14	23678*	16	16	1.2	7
Clc1ccccc1-c1csc(Nc2cccnc2)n1	8	-47	4381	7	-2	2.9	-5
CCCC(C(=O)NC1CCCC1)N(Cc1ccccc1)C(=O)c1snc(C(N)=O)c1N (configuration not stated)	1	-13	3546	·	·	·	·
CCc1c(C)nc(N)c(C#N)c1-c1ccccc1	3	-30	2467	6	2	4.7	3
CCOC(=O)N1CCC(n2c(=S)[nH]c3cc(OCC)c(OCC)cc3c2=O)CC1	-5	-10	18805*	6	5	6.0	32
N#CC(c1ccccn1)c1ncc(C(F)(F)F)cc1Cl (configuration not stated)	-2	6	1938	-1	3	4.9	7
O=C(COc1ccc(Cl)cc1Cl)Nc1cccc(-c2ccc(N3CCOCC3)nn2)c1	24	-116	6015	-6	3	2.6	2
O=C1c2ccccc2NC(c2ccco2)N1NS(=O)(=O)c1ccccc1 (configuration not stated)	2	-37	4510	11	-3	7.6	4
CC(NC(=O)c1nc[nH]c1C(=O)N1CCN(c2ccccc2)CC1)c1ccccc1 (configuration not stated)	·	·	·	6&7	14&9	3.7&3.4	-3&-6
CCOC(=O)C(=NNc1ccccc1Cl)N(C)C1CCS(=O)(=O)C1 (configuration not stated)	·	·	·	2	8	-2.6	-3
CCCCCCCCC(=O)NNC(=O)c1c(O)c2ccccc2n(CC)c1=O	2	-1	3940	8	4	63	49
O=C(O)c1ccccc1-c1nc2ccccc2c(=O)[nH]1	-1	-4	4060	6	2	1.4	-1
COc1ccc(CC(=O)Nc2cccc(Cl)c2C)cc1S(=O)(=O)N1CCOCC1	·	-9	3574	2	7	-3.9	-4
Cc1cc(Cl)c(S(=O)(=O)N2CCN(c3ccccn3)CC2)cc1OCC(=O)NC1CCCCC1	4	-4	·	-2	-3	-6.0	-5
COc1ccc(OC)c(Nc2ncnc3ccccc23)c1	5	-24	4514	·	·	9.6	-2

Grouped by structure: the compounds so far with a CF3 group (four)
SMILES	BJeLR lethal	PrP 5UTR inh	Autofluor counter	Mtb hypoxia inh	Mtb hypoxia inh growth	Sa RN4220 lethal	ugtP null kill
COc1ccnc(CSC(N)=Nc2cccc(C(F)(F)F)c2)c1	8	5	6905	10	10	9.9	-19
COC(=O)C1=C(N)N(c2ccccc2C(F)(F)F)C2=C(C(=O)CCC2)C1c1ccc2c(c1)OCO2 (configuration not stated)	3	-6	2918	1	3	-7.2	4
Cc1ccnc(OC(C(=O)O)C(OCc2ccccc2)(c2ccccc2)c2ccc(C(F)(F)F)cc2)n1 (configuration not stated)	-6	-18	3715	2	-3	6.2	8
N#CC(c1ccccn1)c1ncc(C(F)(F)F)cc1Cl (configuration not stated)	-2	6	1938	-1	3	4.9	7

Other results
SMILES	BJeLR lethal	PrP 5UTR inh	Autofluor counter	Mtb hypoxia inh	Mtb hypoxia inh growth	Sa RN4220 lethal	ugtP null kill
CCOC(=O)C1C(=O)OC(C)(C)C1C(C)C(=O)c1ccccc1 (configuration not stated)	0	-2	8204	7	3	3.0	-3
CC(C)(C)NC(=O)Cn1c(SCC(N)=O)nc2ccccc21	-13	-26	3913	8	3	2.7	4
OCCN1CCN(c2cc(-c3ccccc3)c3ccccc3n2)CC1	-5	-6	2586	4	3	3.3	19
O=C(CCNC(=O)c1ccc([N+](=O)[O-])cc1)NN=Cc1ccc(F)cc1	·	·	·	3	7	11	8
Cc1cccc(N(CC(=O)NCCc2ccccc2)C(=O)c2csnn2)c1	0	-31	5354	4	6	-1.1	3
COc1ccc(-c2nnc(SCC(=O)c3cccs3)o2)cc1	-1	-99	2748	·	·	-3.4	-20
COc1ccc([N+](=O)[O-])cc1/C=N/Nc1nc(N2CCCCC2)nc(N2CCCCC2)n1	2	-43	2261	·	·	·	·
N#Cc1cccc(C(=O)N(CCc2ccccc2)Cc2cccs2)c1	-8	-17	5546	-3	4	8.0	21
CN(C)C(=O)Oc1c(Cl)cc(Cl)c2ccccc12	-2	1	2816	·	·	5.5	-7
C=CCN1CC[C@]23c4c5ccc(O)c4OC2C(=NNC(=O)c2ccccc2)CC[C@@]3(O)C1C5 (some centres not stated)	·	·	·	0	8	7.0	2
CC(C)n1nc(C(=O)Nc2ccc3c(c2)OCO3)c2ccccc2c1=O	·	-11	3871	6	2	1.7	-2
COc1ccc(NS(=O)(=O)c2cccc(C(=O)N3CCN(Cc4cc(OC)ccc4OC)CC3)c2)cc1	-8	-25	·	2	0	0.0	-1
CC1CN(C(=O)C2CCCN2S(=O)(=O)c2ccc(Cl)cc2)CC(C)O1 (configuration not stated)	-1	-25	11840	12	4	3.4	2
Cn1cccc1C(=O)OCC(=O)Nc1ccc2[nH]c(=O)[nH]c2c1	·	-9	4106	9	16	3.3	-1
CC(C)c1ccccc1NC(=O)COC(=O)c1cccnc1	-7	-7	5828	5	19	-0.1	2

Part of the list above with just Mtb hypoxia inh, BJeLR lethal and Autofluor counter.
molecule | Mtb hypoxia inh | BJeLR lethal | Autofluor counter
CC(C)c1ccccc1NC(=O)COC(=O)c1cccnc1 | 5 | -7 | 5828
CCOC(=O)C1C(=O)OC(C)(C)C1C(C)C(=O)c1ccccc1 (configuration not stated) | 7 | 0 | 8204

Compound activity (PubChem)
